PKD1 inh: inhibitors of human PKD1 kinase; Q15139; PKD1 kinase fluorescence polarization assay; inhibition, %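 (about 10 µM by stock and volumes)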; 200,000 compounds, 0.056% hits;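 active = inhibition of 50% or more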;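 also: controls were vehicle for no effect and a reference inhibitor for full effect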
RGS16-Gao: regulators of human RGS16-Galphao interaction | O15492+P09471 | bead-based flow cytometry RGS16-Galphao binding, fluorescence; actives lie on both sides | binding response (% of control), % at 10 µM | 220,000 compounds, 0.38% hits | AID 1441;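 active = below 25% or above 175%, edge rows of some plates excepted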;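 also: Galphao activated by GDP with aluminum fluoride before binding; 100% = wells without compound and 0% = beads without RGS; some results beyond the cut were filed as inactive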
Target sequence (O15492 whole entry, looked up): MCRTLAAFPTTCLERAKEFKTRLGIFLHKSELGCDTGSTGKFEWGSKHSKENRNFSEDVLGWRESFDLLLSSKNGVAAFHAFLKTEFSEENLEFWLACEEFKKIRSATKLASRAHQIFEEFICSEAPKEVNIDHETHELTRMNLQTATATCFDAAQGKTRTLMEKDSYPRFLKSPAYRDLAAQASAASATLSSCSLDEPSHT
Target sequence (P09471 whole entry, looked up): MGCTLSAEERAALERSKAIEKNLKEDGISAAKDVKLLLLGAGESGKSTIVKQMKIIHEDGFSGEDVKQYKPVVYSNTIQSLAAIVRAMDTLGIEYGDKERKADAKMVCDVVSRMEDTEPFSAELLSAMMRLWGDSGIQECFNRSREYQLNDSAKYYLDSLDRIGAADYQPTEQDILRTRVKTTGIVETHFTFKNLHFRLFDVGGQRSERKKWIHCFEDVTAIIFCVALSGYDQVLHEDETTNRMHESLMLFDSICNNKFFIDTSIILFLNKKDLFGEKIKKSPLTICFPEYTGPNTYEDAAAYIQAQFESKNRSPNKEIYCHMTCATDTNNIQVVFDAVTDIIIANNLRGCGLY
HSV replic up: increases HSV replication in cells. maximum fold increase. 220,000 compounds, 0.005% hits. HSV replication augmentation in cells, fold increase;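 active = peak rise of 1.5-fold or more in the series; tested in PC3 cells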;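 also: first round at 10 µM; read as green reporter fluorescence; hits show the peak of a series up to 25 µM; 1 = signal of infected wells without compound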
GALR2 ag: GALR2 (human) receptor agonism. O43603. GALR2-expressing cells, agonist activation read-out. activation, %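 (tested at 5 µM)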. 140,000 compounds, 0.48% hits. AID 803;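 active = above mean plus 3 SD of all compounds, about 5% in these data, not always enough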;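 also: 0% = vehicle buffer wells and 100% = reference agonist at full effect; tested in CHO reporter cells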
Target sequence (O43603 whole entry, looked up): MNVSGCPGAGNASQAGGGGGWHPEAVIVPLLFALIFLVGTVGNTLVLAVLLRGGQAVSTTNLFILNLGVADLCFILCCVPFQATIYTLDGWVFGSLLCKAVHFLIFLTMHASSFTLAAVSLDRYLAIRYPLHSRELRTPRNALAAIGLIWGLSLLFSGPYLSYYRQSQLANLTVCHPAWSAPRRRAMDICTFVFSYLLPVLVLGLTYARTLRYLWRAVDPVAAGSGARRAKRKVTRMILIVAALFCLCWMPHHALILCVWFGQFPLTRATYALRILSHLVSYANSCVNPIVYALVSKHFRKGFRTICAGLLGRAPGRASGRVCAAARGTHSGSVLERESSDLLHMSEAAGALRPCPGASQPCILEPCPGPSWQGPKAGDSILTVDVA
INS promoter inh: TRM-6 insulin promoter activity inhibition. 130,000 compounds, 0.9% hits. TRM-6 cells (human fetal islet line), insulin promoter-eGFP reporter, imaging; reporter expression induced with tamoxifen. inhibition, % at 2 µM. AID 1273;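 active = inhibition above the mean plus 3 SD, with well images judged a real hit on visual review, cut at about 60% in these data, passing the limit was not always enough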
INS promoter inh cell count: second read-out of INS promoter inh, no call of its own (marks repeat the call); normalized cell count, %; measured here: cell count, toxicity; reference of the scale not given here;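 cells exposed to compound for 48 h; stained nuclei by imaging scaled within each plate; lower means fewer cells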
HSV replic up primary fold: also measured in HSV replic up; calls as there; fold increase; compound at 10 µM; measured here: primary screen fold increase 10 uM; tested in PC3 cells;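 GFP signal in the first replicate; 1 = infected wells without compound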
Active calls of the source: *; i = inactive; x = no result given; & = joins results of further samples.

#	SMILES	GALR2 ag	PKD1 inh	HSV replic up primary fold	INS promoter inh cell count	INS promoter inh	RGS16-Gao	HSV replic up
1	O=C(COC(=O)C1CCCN1C(=O)c1cccs1)c1ccccc1 (configuration not stated)	-1.6	-5.8	1.01	x	x	109.2	i
2	O=C(CSc1cccc2cccnc12)Nc1ccc(S(=O)(=O)N2CCOCC2)cc1	x	x	0.8	x	x	97.2	i
3	CCc1nnc(NC(=O)CSc2nnc(-c3c[nH]c4ccccc34)n2CC)s1	-0.3	-2.1	0.95	83.6	21.4	107.1	i
4	Cc1nc(-c2coc3cc(C)c(N=O)c(O)c3/c2=N\N)cs1	x	0.2	1.03	130.6	-100.0	85.4	i
5	COc1ccc(C2SCC(=O)N2c2nc3ccccc3s2)cc1 (configuration not stated)	x	-7.2	0.99	x	x	100.8	i
6	CC(C)CC(c1nnnn1C(C)(C)C)N1CCN(Cc2ccccc2)CC1 (configuration not stated)	x	5.0	1.01	125.8	-7.1	99.2	i
7	O=C1Cc2ccccc2Sc2ccc(O)cc21	-0.3	-10.7	0.96	x	x	80.5	i
8	CC(C)C(NC(=O)c1ccccc1Cl)C(=O)OCc1nc2scc(-c3ccccc3Cl)c2c(=O)[nH]1 (configuration not stated)	-1.2	1.4	x	117.6	23.1	99.7	x
9	CCOc1ccc(-n2nnc3c(=O)n(CC(=O)c4ccccc4)cnc32)cc1	-0.5	-14.4	0.95	x	x	x	i
10	CC(C)C(=O)Nc1ncc(Cc2cccc(Cl)c2)s1	x	4.0	0.92	x	x	101.5	i
11	C=C(C(=O)c1ccccc1)C(C)CC(=O)c1ccccc1 (configuration not stated)	-1.6	-4.1	0.75	x	x	104.3	i
12	O=C(CSCc1ccc(Cl)cc1)Nc1cccc(C(=O)Nc2ccccc2C(=O)O)c1	-1.5	4.7	0.97	x	x	106.0	i
13	C[n+]1ccccc1/C=N/O	-1.1&-0.1	11.1&-9.9	0.86&0.69	76.3&116.7	-218.2&-33.3	105.3&102.5	i
14	Cc1nc2ccccc2c(=O)n1/N=C/c1ccncc1	-0.3	0.3	1.05	193.8	-32.4	x	i
15	Cc1ccc(C(=O)Nc2ccccc2N2CCN(C(=O)C(C)C)CC2)cc1	-0.4	11.3	0.89	x	x	94.2	i
16	FC(F)(F)c1ccc(NC(=S)NCc2ccccc2)cc1	x	1.7	1.02	73.2	33.3	104.1	i
17	FC(F)(F)c1cccc(N2Cc3ccccc3C2)c1	-0.9	8.5	0.94	x	x	102.1	i
18	Cc1cc(-c2csc(N)n2)c(C)n1-c1ccc(Cl)c(Cl)c1	0.5	4.5	1.19	93.8	-19.4	80.5	i
19	COC(=O)c1cccnc1NC(=S)NC1CCCCC1	x	-0.1	0.88	x	x	75.3	i
20	CCNC(=O)/C(C#N)=C/c1c(N(Cc2ccccc2)Cc2ccccc2)nc2ccccn2c1=O	0.3	0.6	0.88	86.8	-39.7	109.5	i
21	CC1CCCC(NC(=O)COC(=O)/C=C/c2ccc(S(=O)(=O)N3CCOCC3)cc2)C1C (configuration not stated)	x	x	0.96	x	x	94.7	i
22	COc1ccc2nc(SCc3ccccc3C)nc(C)c2c1	0.4	-8.0	1	x	x	90.8	i
23	Cc1cc2ccccc2c(=O)n1CC(=O)NCCC1=CCCCC1	x	-0.9	0.9	107.0	-20.0	98.4	i
24	O=C(O)CN1C(=O)CSc2ccccc21	-0.4	0.3	0.92	84.3	-50.0	105.8	i
25	CCOc1nc(-c2ccc(C)cc2)ccc1-c1noc(COC)n1	-1.4	10.1	0.96	76.1	-106.2	103.0	i
26	Cc1ccc(C(=O)N/N=C\c2ccccc2[N+](=O)[O-])cn1	x	-4.5	1.01	107.8	-30.0	98.5	i
27	Cc1ccc(NS(=O)(=O)c2c(C)[nH]c(=O)[nH]c2=O)cc1C	-2.5	-2.0	0.9	112.1	-25.0	105.2	i
28	CC(=O)Nc1ccc(S(=O)(=O)N(Cc2ccccc2)c2ccccc2)cc1	x	-2.8	1.03	x	x	104.0	i
29	C[C@@H](CN1C2=NC[C@H](Cc3ccc(O)cc3)N2C[C@H]1Cc1ccc(O)cc1)NC(=O)CCC1CCCCC1	x	8.6	0.86	x	x	102.1	i
30	COC(=O)C(Cc1cnc[nH]1)NC(=O)C1CCC(=O)N1 (configuration not stated)	-2.0	-12.7	0.72	x	x	100.0	i
31	O=C(COC(=O)c1cccnc1Cl)Nc1cccc(S(=O)(=O)N2CCCCC2)c1	x	5.3	1.02	89.6	-11.8	101.0	i
32	COc1cc(/C=C/C(=O)NC(C)CCc2ccccc2)cc(OC)c1OC (configuration not stated)	-1.4	-11.6	x	98.7	53.9	29.2	x
33	COc1ccccc1OCC(=O)N(Cc1nc(-c2ccc(Cl)cc2)no1)C(C)C	-2.4	-8.1	0.98	x	x	110.5	i
34	CCCC(=O)N1CCCC(c2nc(-c3cccc(OC)c3)no2)C1 (configuration not stated)	x	-3.1	0.95	100.0	-15.0	101.7	i
35	O=[N+]([O-])C1=CC=C2C(=NC3(CCCCC3)N2O)C1=NCCO	-0.8	7.0	x	x	x	99.8	x
36	CC(=O)Nc1ccc(NC(=O)C(C)OC(=O)/C=C/c2cccs2)cc1 (configuration not stated)	x	2.1	0.95	104.2	9.1	106.4	i
37	O=[N+]([O-])c1cc(-n2cccc2)ccc1N1CCOCC1	x	-6.1	0.81	x	x	99.5	i
38	N#Cc1ccc(-c2ccc(F)cc2)nc1Oc1ccc(Cl)c(Cl)c1	-2.3	-1.8	0.55	x	x	104.0	i
39	CC(C)NS(=O)(=O)c1ccc(OCC(=O)Nc2ccc3c(c2)OCCO3)cc1	-1.1	-4.4	0.85	139.0	37.5	98.5	i
40	CCCCNS(=O)(=O)c1ccc(S(=O)(=O)n2cnc3ccccc32)cc1	-1.2	5.5	x	92.5	25.0	101.7	x
41	CC1=[N+]([O-])C(N2CCOCC2)C(O)(c2ccccc2)C1 (configuration not stated)	-0.1	2.8	0.91	91.4	-15.6	92.7	i
42	COc1cc2c(cc1OC)C(CSc1ccccc1C(=O)O)=NC(C)(C)C2	x	1.1	0.88	x	x	108.1	i
43	Cc1ccc(CNC(=O)CCOc2ccc(C(C)(C)C)cc2)cc1	-1.3	3.0	0.97	107.3	22.0	102.8	i
44	CC(C)(C)OCC(O)CN1CCN(C(=O)c2ccccc2)CC1 (configuration not stated)	x	-7.2	1	79.0	0.0	95.1	i
45	COC(=O)C1Cc2ccccc2CN1C(=O)CCl (configuration not stated)	x	-4.0	1.02	x	x	102.6	i
46	COC(=O)CCC(=O)N1CCOCCOCCOCC1	x	-5.4	0.94	x	x	104.5	i
47	CCOCCCn1cnc2c3cc(F)ccc3n(C)c2c1=O	x	x	1.09	x	x	103.1	i
48	COc1cc2c(cc1OC)CN(C(=O)CSc1nc(N)c(C#N)cc1C#N)CC2	-0.1	5.8	1.11	x	x	99.9	i
49	COc1ccc(N(CC(=O)NC2CCCC2)S(=O)(=O)c2c(C)[nH]c(=O)[nH]c2=O)cc1	0.0	1.1	1	x	x	99.8	i
50	CCN(CC)C(=O)Cn1nnc(-c2ccc(S(C)(=O)=O)cc2)n1	x	-2.9	1.03	60.0	36.8	108.9	i
51	CC(=O)Nc1ccc(N=Nc2ccccc2)cc1	-2.7	-7.2	1.02	88.8	30.0	106.3	i
52	COCCSc1ccccc1C(=O)NCc1ccc2c(c1)OCO2	-5.2	-6.1	0.71	210.8	13.5	102.5	i
53	COc1ccc(-c2noc(CCCC(=O)NCCc3ccccc3)n2)cc1OC	0.3	-7.4	1.09	71.8	36.4	109.6	i
54	CCOP(=O)(/C(C#N)=C(\C)O)c1ccccc1 (configuration not stated)	x	5.9	0.98	59.0	42.9	92.6	i
55	C=C(C)Cn1c(CCNC(=O)CC)nc2ccccc21	-0.7	-10.5	1.07	60.6	29.7	99.2	i
56	COC(=O)C1=C(Nc2ccccc2NC(=O)c2ccccc2C(=O)O)CSC1	x	x	0.92	x	x	98.0	i
57	Cc1ccc(NC(=O)Nc2cccn(Cc3c(F)cccc3Cl)c2=O)cc1	x	-3.1	1.04	113.3	31.6	98.0	i
58	O=c1cc(-c2cccc(Cl)c2)oc2cccc(O)c12	x	x	0.96	x	x	105.3	i
59	CCOC(=O)N1CCN(C(=S)NC(=O)c2ccc(Br)cc2)CC1	x	-1.3	0.94	x	x	101.1	i
60	O=C(/C=C/c1ccc(Cl)cc1Cl)Nc1ccncc1	0.0	-7.8	0.85	58.7	20.0	105.1	i

Given as labelled records: part of the list above
(26) Cc1ccc(C(=O)N/N=C\c2ccccc2[N+](=O)[O-])cn1
  GALR2 ag = x	PKD1 inh = -4.5	HSV replic up primary fold = 1.01	INS promoter inh cell count = 107.8	INS promoter inh = -30.0	RGS16-Gao = 98.5	HSV replic up = i

(27) Cc1ccc(NS(=O)(=O)c2c(C)[nH]c(=O)[nH]c2=O)cc1C
  GALR2 ag = -2.5	PKD1 inh = -2.0	HSV replic up primary fold = 0.9	INS promoter inh cell count = 112.1	INS promoter inh = -25.0	RGS16-Gao = 105.2	HSV replic up = i

Quoted at random: four records from the list, in no set order.
#	SMILES	GALR2 ag	PKD1 inh	HSV replic up primary fold	INS promoter inh cell count	INS promoter inh	RGS16-Gao	HSV replic up
55	C=C(C)Cn1c(CCNC(=O)CC)nc2ccccc21	-0.7	-10.5	1.07	60.6	29.7	99.2	i
46	COC(=O)CCC(=O)N1CCOCCOCCOCC1	x	-5.4	0.94	x	x	104.5	i
48	COc1cc2c(cc1OC)CN(C(=O)CSc1nc(N)c(C#N)cc1C#N)CC2	-0.1	5.8	1.11	x	x	99.9	i
39	CC(C)NS(=O)(=O)c1ccc(OCC(=O)Nc2ccc3c(c2)OCCO3)cc1	-1.1	-4.4	0.85	139.0	37.5	98.5	i

(more compounds)
#	SMILES	GALR2 ag	PKD1 inh	HSV replic up primary fold	INS promoter inh cell count	INS promoter inh	RGS16-Gao	HSV replic up
61	CCc1ccc2[nH]cc(C(=O)OCCOC)c(=O)c2c1	-1.4	-6.2	0.92	114.9	-14.8	95.7	i
62	CC(C)Cn1c(N)c(S(=O)(=O)c2cccs2)c2nc3ccccc3nc21	0.8	3.0	1.02	160.2	31.2	97.6	i
63	C/C(=N\Nc1cccc(Cl)c1)C1(C)N(O)C(C)(C)C(c2ccco2)=[N+]1[O-] (configuration not stated)	x	x	0.96	x	x	87.4	i
64	Cc1ccc(C)c(C(C)NC(=O)C2C3CCC(O3)C2C(=O)O)c1 (configuration not stated)	-0.4	-7.1	0.86	x	x	100.6	i
65	CCOC(=O)C1(Cc2ccc(OC)cc2)CCN(C(=O)Cc2cccnc2)CC1	x	13.7	1.34	x	x	107.1	i
66	Cc1onc(-c2ccccc2)c1C(=O)N1CCN(C/C=C/c2ccccc2)CC1	-0.8	-6.6	0.82	x	x	102.4	i
67	O=S(=O)(c1ccc(OCC(O)CN2CCc3ccccc3C2)cc1)N1CCOCC1 (configuration not stated)	0.3	-11.3	1.12	65.6	23.7	102.8	i
68	CCOC(=O)c1oc2ccccc2c1NC(=O)c1cccc(OC)c1OC	-1.5	-2.2	0.83	99.8	-120.0	100.6	i
69	Cc1ccc(-c2cnc(N)n2C)cc1C	-1.7	-11.1	1.07	89.6	33.3	117.5	i
70	CCOC(=O)NC(=O)COC(=O)CCCSc1nc2ccccc2s1	x	1.3	1.25	x	x	99.7	i
71	Cc1ccc(CC(=O)N2CCN(c3cccc(C(F)(F)F)c3)CC2)cc1	-2.4	-6.7	0.89	119.1	20.0	99.9	i
72	COc1ccc2oc(C(F)(F)C(F)F)cc(=O)c2c1	-1.1	-3.7	0.86	102.3	-5.4	99.1	i

This is a random part of the collection. About 1.3% of those tested had a hit in this group.
